# Hsc70: small molecules displacing fluorescent ligand from Hsc70 – biochemical, fluorescence polarization, primary screen (AID 568). Hsc70 fluorescence polarization, probe displacement; higher % means a stronger effect; strong numbers were not always called active. one-dose displacement, % at 20 µM; IC50 in µM for titrated hits. 83,000 tested, under 10 active;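 active means displacement above 50% without optical interference and an IC50 on retest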;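 further: ATPase domain with a fluorescein-tagged ATP probe; 0% = vehicle and 100% = excess ADP; read after one hour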
# MT1-MMP reporter: inhibitors of MT1-MMP promoter transcription, cell-based, luciferase reporter, luminescence (AID 618); MT1-MMP promoter luciferase reporter cells, luminescence; calls from a first round at 10 µM; hits with a dose series show EC50 in µM; actives 0.62% (n = 87,000);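 active means over half of the reporter light lost at 10 µM or EC50 under 50 µM; inactive means the rest and hits that failed the dose series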;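 further: actives suppress MT1-MMP promoter-driven transcription so potencies describe inhibitors; HT1080 fibrosarcoma cells; overnight exposure; toxic or luciferase-blocking compounds were not removed from the actives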
# WNV NS2B-NS3 inh: blocks West Nile virus NS2B-NS3 protease activity; WNV NS2B-NS3 protease, fluorogenic substrate Ex360/Em465; active compounds read low; z-score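 (tested at a level between 10 and 100 µM)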; AID 577; P06935; actives 0.18% (n = 65,000);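 active means z-score at -3 or under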;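 further: score is relative to mean and spread of the compound wells of a plate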
# Target sequence (P06935 1371-1501 limits assumed): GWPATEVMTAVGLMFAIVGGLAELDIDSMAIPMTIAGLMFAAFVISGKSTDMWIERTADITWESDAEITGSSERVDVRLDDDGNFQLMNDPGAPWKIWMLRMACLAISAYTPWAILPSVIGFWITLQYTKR
# Target sequence (P06935 1502-1679 limits assumed): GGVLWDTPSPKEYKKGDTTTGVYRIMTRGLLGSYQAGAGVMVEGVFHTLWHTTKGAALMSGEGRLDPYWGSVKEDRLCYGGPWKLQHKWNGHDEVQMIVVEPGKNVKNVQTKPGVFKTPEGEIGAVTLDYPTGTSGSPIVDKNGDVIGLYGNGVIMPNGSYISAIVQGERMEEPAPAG
# Active calls of the source: *; i = inactive; x = not tested or not shown; + = active, no number.
# The first 3 compounds (preview)
SMILES,Hsc70,MT1-MMP reporter,WNV NS2B-NS3 inh
CCN1C(=O)C2C(c3ccccc3F)NC(Cc3ccc(O)cc3)(C(=O)OC)C2C1=O (stereo unspecified),0.9%,i,0.41
COc1cccc(NC(=O)Cn2nnc(C(=O)Nc3ccccc3)c2N)c1,-4.1%,i,-0.64
Cc1sc(NC(=O)c2ccco2)c(C(c2cccnc2)N2CCN(C)CC2)c1C (stereo unspecified),2.5%,i,x

# All compounds of this part, previewed entries included:
SMILES,Hsc70,MT1-MMP reporter,WNV NS2B-NS3 inh
CCN1C(=O)C2C(c3ccccc3F)NC(Cc3ccc(O)cc3)(C(=O)OC)C2C1=O (stereo unspecified),0.9%,i,0.41
COc1cccc(NC(=O)Cn2nnc(C(=O)Nc3ccccc3)c2N)c1,-4.1%,i,-0.64
Cc1sc(NC(=O)c2ccco2)c(C(c2cccnc2)N2CCN(C)CC2)c1C (stereo unspecified),2.5%,i,x
O=C(Nc1cccc(Cl)c1)N(CCN1CCOCC1)Cc1ccccc1F,0.8%,i,x
COc1ccc(NC(=O)CSc2nnc(-c3ccccc3C)n2N)cc1OC,-5.6%,i,0.41
CS(=O)(=O)N1CCN(c2ccc(NC(=O)c3ccc(-c4ccc(Cl)cc4)o3)cc2)CC1,-4.2%,i,x
O=C(CCCn1c(=O)[nH]c2ccccc2c1=O)NC1CCCCCC1,-3.3%,i,-0.68
O=C(Nc1nnc(C23CC4CC(CC(C4)C2)C3)s1)c1ccco1,-2.5%,i,0.05
COc1ccc(-c2ccc(C3C(C#N)=C(N)Oc4n[nH]c(C)c43)o2)cc1 (stereo unspecified),-4.1%,i,x
O=C(CSc1nnc(CNc2ccc(F)cc2)n1CC1CCCO1)Nc1ccccc1 (stereo unspecified),-1.8%,i,x
N#Cc1ccc(-c2ccco2)nc1SCC(=O)c1ccc(Cl)cc1,-16%,i,-0.98
COc1ccccc1-c1nc(C#N)c(N2CCN(C(c3ccccc3)c3ccccc3)CC2)o1,5.1%,i,-0.4
CC(C)(C)c1[nH]c2ccccc2c1/C=N/O,1.3%,i,x
CCOC1(OCC)N=C(N)C2(C#N)C(c3ccc(NC(C)=O)cc3)C12C#N (stereo unspecified),-2.7%,i,-0.43
CCn1c(O)c(/C=N/n2cnnc2)sc1=S,14%,i,0.63
CC(NC(=O)c1ccc(S(=O)(=O)N(C)C)cc1)c1ccccc1 (stereo unspecified),6.8%,i,-0.01
Cc1cc(Oc2ccc(C(C)(C)C)cc2)nc(N2CCOCC2)n1,-5.2%,i,x
Cc1cc2c(c(C)nn2-c2ccccc2)c(=O)o1,-5.4%,i,1.3
O=C1c2cccnc2C(O)N1Cc1cccs1 (stereo unspecified),3.6%,i,2.1
CCOC(=O)Cc1csc(NC(=O)CCN2C(=O)c3ccccc3C2=O)n1,-10%,i,0.43
Cc1sc2nc(SCC(=O)NCc3ccco3)[nH]c(=O)c2c1C,9.4%,i,-0.71
COc1ccc(C(=O)CSc2nc(C)cc(=O)[nH]2)cc1,-5.5%,i,0.08
COc1ccc(NC(=O)Nc2cccc(C(=O)N3CCOCC3)c2)cc1OC,0.8%,i,-0.47
Cc1ccc(C(=O)NCc2cccs2)cc1S(=O)(=O)N1CCCCC1,2.8%,i,-0.14
Cc1nnc(SCC(=O)OC2CC(C)CCC2C(C)C)[nH]c1=O (stereo unspecified),3.4%,i,x
CCOC(=O)N1CCN(C(=O)NC2CCCCC2)CC1,5.0%,i,x
COc1ccc(-c2nn3c(-c4cccc(C)c4)nnc3s2)cc1OC,4.2%,i,1.5
Cc1ccc(-c2csc3nnc(SCC(=O)Nc4cccc(C)n4)n23)cc1,-0.7%,i,1.6
O=C(Cn1cnc2c(cnn2-c2ccc(F)cc2)c1=O)N1CCCc2ccccc21,0.2%,i,-0.2
CCCCC(=O)Nc1ccc2c(c1)nc1n2CCSC1,-9.6%,i,0.98
COc1ccc(NC(=O)CN2CCN(CC(=O)Nc3ccccc3Cl)CC2)cc1,-3.3%,i,-0.53
O=S(=O)(NCCc1ccccc1)c1cccc2nsnc12,3.8%,i,x
COc1cc2c(cc1NC(=O)c1cccnc1)CCCC2,5.3%,i,-1
O=S(=O)(c1cccs1)N1CCc2ccccc21,-62%,i,0.54
O=C(CN1CCC(C(=O)c2ccc(F)cc2)CC1)Nc1ccccc1,-8.4%,i,-0.74
Cc1ccc(NC(=O)COC(=O)C2CC2C)c(S(=O)(=O)N2CCCCC2)c1 (stereo unspecified),5.5%,i,-1.1
COc1ccc2nc(NC(=O)c3cccc(OCc4c(C)noc4C)c3)sc2c1,-0.4%,i,-0.13
CCOC(=O)c1cc2c(=O)n3cc(C)ccc3nc2n(Cc2cccnc2)c1=N,3.2%,i,-0.32
O=c1cc(CN2CCN(c3ccc(F)cc3)CC2)c2cc3c(cc2o1)CCCC3,8.4%,i,x
CCOc1ccc(OCCOCCN2CCOCC2)cc1,1.6%,i,x

# Sorted by length of the SMILES (largest number first): 6 of the compounds above.
SMILES,Hsc70,MT1-MMP reporter,WNV NS2B-NS3 inh
CS(=O)(=O)N1CCN(c2ccc(NC(=O)c3ccc(-c4ccc(Cl)cc4)o3)cc2)CC1,-4.2%,i,x
COc1ccc(-c2ccc(C3C(C#N)=C(N)Oc4n[nH]c(C)c43)o2)cc1 (stereo unspecified),-4.1%,i,x
CCOC(=O)c1cc2c(=O)n3cc(C)ccc3nc2n(Cc2cccnc2)c1=N,3.2%,i,-0.32
Cc1sc2nc(SCC(=O)NCc3ccco3)[nH]c(=O)c2c1C,9.4%,i,-0.71
CCn1c(O)c(/C=N/n2cnnc2)sc1=S,14%,i,0.63
CCOc1ccc(OCCOCCN2CCOCC2)cc1,1.6%,i,x

# Of the compounds above, 2 have a tert-butyl group.
SMILES,Hsc70,MT1-MMP reporter,WNV NS2B-NS3 inh
CC(C)(C)c1[nH]c2ccccc2c1/C=N/O,1.3%,i,x
Cc1cc(Oc2ccc(C(C)(C)C)cc2)nc(N2CCOCC2)n1,-5.2%,i,x

# The list continues:
SMILES,Hsc70,MT1-MMP reporter,WNV NS2B-NS3 inh
C=C(C)C1CC=C(CN2CCC(O)CC2)CC1 (stereo unspecified),2.2%,i,x
CCCCSc1nc2c(cnn2-c2ccc(C)c(C)c2)c(=O)[nH]1,2.8%,i,0.1
CN(C)C(=O)N1CCC(C(=O)NC2CCCCCCC2)CC1,1.1%,i,-0.05
O=C(O)CSc1nnc(CNc2ccc(Cl)cc2)n1Cc1ccccc1,-1.0%,i,0.32
COc1ccc(C2C(C(C)=O)=C(O)C(=O)N2CCCn2ccnc2)cc1OC (stereo unspecified),-1.2%,i,2
CS(=O)(=O)N(CC(=O)N1CCN(Cc2ccc3c(c2)OCO3)CC1)Cc1ccc(Cl)cc1,-0.7%,i,x
Cc1cc(N2CCN(C(=O)c3ccco3)CC2)n2ncnc2n1,-2.5%,i,-0.85
Cc1csc(NC(=O)c2cc3c(s2)CCC3)n1,-1.1%,+,0.0095
COc1cc2nc(C3CCC3)n(NC(=O)COc3ccccc3)c(=O)c2cc1OC,-0.1%,i,0.49
Cc1ccc(Nc2cc(=O)n(C3CCCCC3)c(=O)[nH]2)cc1C,-2.0%,i,0.78
O=C(CC1OC(=O)c2ccccc21)c1ccco1 (stereo unspecified),-0.2%,i,-0.85
O=C(Nc1nnc(C2CCCCC2)s1)c1ccco1,0.6%,i,-1.1
O=c1oc2cc(O)ccc2c2c1CCCC2,-2.1%,i,5
CCn1c(Cc2ccccc2)nnc1SCC(=O)Nc1ccccc1,0.8%,i,1.2
COc1ccc(/C=N/O)cc1COc1ccc(NC(C)=O)cc1,-1.7%,i,-0.32
O=C1c2ccccc2C(=O)N1CCCc1nc2ccccc2c(=O)n1CCCn1ccnc1,4.6%,i,-0.57
CCOC(=O)N1CCN(C(=O)CN(c2ccc3c(c2)OCO3)S(C)(=O)=O)CC1,0.1%,i,-0.77
CCCOc1ccc(C2C(=O)N(C3CCCCC3)CC(=O)N2C2CC2)cc1OC (stereo unspecified),-2.3%,i,-0.81
CSc1nsc(SC)c1NC(=O)OCCc1ccccn1,-2.3%,i,0.83
CCCc1cc(C(=O)O)c2ccccc2n1,1.9%,i,x
Nn1cc(-c2ccccc2)nc1SCC(=O)NC1CCS(=O)(=O)C1 (stereo unspecified),0.4%,i,1
COC(=O)c1[nH]c2cc(OC)ccc2c1NC(=O)CCN1CCCC(C)(C)C1,-6.7%,i,0.07
O=C(COc1ccc(S(=O)(=O)N2CCCC2)cc1)NCc1ccco1,4.0%,i,0.25
COC(=O)C(C)Sc1ccc2nnc(-c3ccc(F)cc3)n2n1 (stereo unspecified),2.0%,i,1.7
O=C(CCN1C(=O)COc2ccccc21)N1CCN(c2ccccn2)CC1,-7.3%,i,0.64
O=C(NCc1ccoc1)c1ccc(NC(=O)c2ccccc2Cl)cc1,-5.5%,i,0.52
CCOC(=O)c1[nH]c2ccc(F)cc2c1NC(=O)CCN1CCSCC1,4.1%,i,0.15
CCCCc1c(O)nc(SCC(=O)c2ccccc2)[nH]c1=O,4.9%,i,0.3
Cc1cccc(-n2c(N)cc(=O)nc2SCC(=O)NC2CCCCC2)c1,2.7%,i,-0.4
Cc1ccccc1OCc1nc2ccccc2c(=O)n1/N=C/c1ccco1,-6.9%,i,-0.96
O=C(NCCCN1CCCC1=O)c1ccc2c(c1)OCO2,9.7%,i,-0.0097
Cc1c(NC(=O)COC(=O)C2CC3C=CC2C3)c(=O)n(-c2ccccc2)n1C (stereo unspecified),-3.4%,i,-0.17
CCOC(=O)/C(=C\c1cccnc1)C(=O)c1cc(C(C)=O)c(Nc2ccccc2)s1,-12%,+,x
CCOc1ccc(CC(=O)NNC(=S)Nc2ccccc2)cc1Br,4.4%,i,x
COc1ccc(CN2C3CCCC2CC(NC(=O)Nc2cccc(C)c2)C3)cc1 (stereo unspecified),-2.1%,i,x
CN(Cc1ccccc1)C(=O)CN(Cc1ccccc1)S(C)(=O)=O,2.6%,i,x
Cc1ccc(-c2c3c(=O)n(C)c(=O)n(C)c3cn2CCCN2CCOCC2)cc1,0.4%,i,-0.26
Cc1cc(C(=O)CSc2nncs2)c(C)n1-c1ccc2c(c1)OCO2,2.8%,i,-0.17
CC1CCCN(C(c2cccs2)c2nnnn2Cc2ccccc2)C1 (stereo unspecified),-10%,i,x
Cc1cccc(-n2c(SCc3cc(=O)n4c(C)cccc4n3)nc3[nH]ncc3c2=O)c1,4.4%,i,x
CN1CCNC(=O)C1CC(=O)O (stereo unspecified),1.6%,i,0.55
Cc1cc(C)n(C(=O)CCCCCCCCC(=O)n2nc(C)cc2C)n1,-2.2%,i,x
COc1ccc(S(=O)(=O)N(C)CC(=O)Nc2ccc(F)cc2)cc1,-0.3%,i,-0.18
CN(C)CCNc1oc(-c2ccccc2F)nc1C#N,2.5%,i,-1
CCOC(=O)c1[nH]c(C)c(C(=O)Nc2ccc(C)c(F)c2)c1C,-9.2%,i,2.8
O=C(O)COc1ccccc1C1C2C(=O)N(c3ccccc3)C(=O)C2ON1c1ccccc1 (stereo unspecified),3.7%,i,-0.74
O=C(Cn1cc(C(=O)c2cccs2)c2ccccc21)NC1CCCCC1,-5.2%,i,x
O=c1c2c3c(sc2ncn1/N=C/c1ccco1)CCCC3,-1.0%,i,0.16
COc1cccc(C(C(=O)NC2CCCC2)N(Cc2ccccc2OC)C(=O)c2ccco2)c1 (stereo unspecified),-0.8%,i,x
CN(C(=O)c1cccc(C#N)c1)c1nnc(-c2ccccn2)s1,-1.4%,i,0.44
C=CCOc1c(Br)cc(CNc2nccs2)cc1OC,-4.1%,i,x
COc1ccc(C(c2c(C)[nH]n(C(N)=S)c2=O)C(C#N)C#N)cc1 (stereo unspecified),2.6%,i,x
CCOc1ccc2nnnn2n1,3.9%,i,-1.1
COc1cccc(C(=O)OCc2ccccc2C#N)c1O,-4.6%,i,-0.88
Cc1ccc2c(c1)NCCO2,-10%,i,-0.6
CCOC(=O)C1=C(SCC)c2cc3c(n2C1=O)CCCC3,-3.4%,i,x
O=CN1CCN(C2CC(=O)N(c3ccc4c(c3)OCO4)C2=O)CC1 (stereo unspecified),-0.5%,i,2.5
c1ccc2cc(OCCN3CCCC3)ccc2c1,3.7%,i,-0.5
COc1ccccc1NC(=O)Cc1nn(C)c(=O)c2ccccc12,-4.3%,i,0.21
Fc1ccc(-c2nnc(Cc3nnc(-c4ccc(F)cc4)o3)o2)cc1,-12%,i,-0.77

# Going on with the list:
SMILES,Hsc70,MT1-MMP reporter,WNV NS2B-NS3 inh
C[C@@H]1C[C@H](Nc2ccccc2)c2ccccc2N1C(=O)c1cccnc1,1.7%,i,0.56
O=C(NCc1ccc(F)cc1)C1CCCN(S(=O)(=O)c2cccnc2)C1 (stereo unspecified),6.0%,i,0.23
Cc1c(C)n(C(=O)CN2CCN(c3ccccn3)CC2)c2ccccc12,-3.7%,i,-0.39
O=C(NC1CCCCC1)C(c1ccccc1)N(Cc1ccco1)C(=O)Cn1cnc2ccccc21 (stereo unspecified),0.9%,i,-0.76
CCCCNS(=O)(=O)c1cccc(S(=O)(=O)N2CCCC2)c1,0.6%,i,0.29
CC(=O)N=c1sc2nc3ccccc3nc2n1N(C(C)=O)C(C)=O,4.6%,i,-0.89
COC(=O)c1ccc(Oc2nc(Nc3ccc(F)cc3)nc(N3CCCC3)n2)cc1,5.1%,i,-0.62
O=C1NC2(CCCCC2)N=C1c1ccccc1,-3.0%,i,-2
CCCC(=O)N1c2ccccc2[C@@H](N(C(C)=O)c2ccccc2)C[C@H]1C,4.9%,i,0.37
Cc1onc(-c2ccccc2)c1C(=O)Nc1ccc(S(=O)(=O)NC2=NCCCCC2)cc1,2.2%,i,-0.69
CCCCNC(=S)NNC(=O)c1csc(C)c1,-4.6%,i,x

# Source: PubChem BioAssay (several laboratories)
